# CtBP-E1A inh – inhibitors of CtBP/E1A interaction | actives 0.49% (n = 340,000) | activity change, % (no concentration beside the values) | AlphaScreen GST-E1A/His-CtBP binding, 1536-well; hits give low values; control for the full effect not named in the record; in the data active means activity change below about -65%; inconclusive means about -30% to -65%; inactive means above about -30%; note: % is set by controls: 0 for no effect and ±100 for the full control effect; compound concentration not given in the record
#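 In 5 uL wells, 23 nL compound meets equimolar GST-E1A and His-CtBP (5X stock 125 nM each) for 2 h, 37 °C. Beads (5X, 50 ug/mL) then 1 h, 37 °C, dark.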
# Six1-Eya2 inh – inhibitors of human Six1/Eya2 interaction; activity change, % (no concentration beside the values); AlphaScreen GST-Six1/His-Eya2 binding, biochemical; hits give low values; control for the full effect not named in the record; actives 0.56% (n = 360,000); Q15475+O00167; in the data active = activity change below about -65%; inconclusive = about -30% to -65%; inactive = above about -30%; note: % is set by controls: 0 for no effect and ±100 for the full control effect; compound concentration not given in the record
# Target sequence (O00167 whole entry, looked up): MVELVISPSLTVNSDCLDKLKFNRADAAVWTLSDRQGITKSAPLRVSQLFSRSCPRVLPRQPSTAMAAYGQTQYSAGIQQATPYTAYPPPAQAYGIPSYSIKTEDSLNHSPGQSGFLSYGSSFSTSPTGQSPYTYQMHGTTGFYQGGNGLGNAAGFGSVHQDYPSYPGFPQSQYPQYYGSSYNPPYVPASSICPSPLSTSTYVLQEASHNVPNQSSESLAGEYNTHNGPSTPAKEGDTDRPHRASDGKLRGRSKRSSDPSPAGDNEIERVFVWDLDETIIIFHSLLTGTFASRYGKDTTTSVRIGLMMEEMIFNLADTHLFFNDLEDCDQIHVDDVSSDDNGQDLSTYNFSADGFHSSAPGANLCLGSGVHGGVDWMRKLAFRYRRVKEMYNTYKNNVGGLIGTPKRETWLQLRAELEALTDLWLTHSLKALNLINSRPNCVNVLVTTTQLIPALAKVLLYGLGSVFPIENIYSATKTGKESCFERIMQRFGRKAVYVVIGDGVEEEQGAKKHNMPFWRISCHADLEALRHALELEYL
# Target sequence (Q15475 whole entry, looked up): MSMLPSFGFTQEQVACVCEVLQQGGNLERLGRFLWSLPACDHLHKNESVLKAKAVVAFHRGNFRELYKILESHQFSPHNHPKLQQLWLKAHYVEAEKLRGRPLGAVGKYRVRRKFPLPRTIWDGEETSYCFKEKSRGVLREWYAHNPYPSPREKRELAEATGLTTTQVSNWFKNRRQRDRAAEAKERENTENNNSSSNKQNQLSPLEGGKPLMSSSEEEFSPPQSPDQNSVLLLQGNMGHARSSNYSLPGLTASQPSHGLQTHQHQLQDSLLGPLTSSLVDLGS
#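 Homogeneous AlphaScreen proximity assay pairing GST-Six1 with His-tagged Eya2 (added as 5X mix: 250 nM and 500 nM) in 50 mM Tris pH 8.0, 300 mM NaCl, 1 mM TCEP. Glutathione donor and nickel acceptor beads; 1 h, 37 °C, dark.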
# D2 PAM – potentiates the human D2 dopamine receptor allosterically | P14416 | DiscoveRx D2 beta-arrestin cells, luminescence, 90 min; 100% = 57 uM dopamine signal | potentiation, % (test concentration not listed) | actives 0.23% (n = 360,000) | AID 624464; active = potentiation of 50% or more; inconclusive = 30% to 50%; inactive = 30% or less;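 note: compound concentration not given in the record; tested on top of an EC20 dose of dopamine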
#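 PathHunter beta-arrestin assay in DiscoveRx D2 cells. Compounds were added with an EC20 of dopamine (50 nM final) for 90 min at 37 deg C. Luminescence was read 1 h after detection reagent, with 57 uM dopamine as the EC100 control.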
# TRPML1 agonist – human mucolipin-1 channel agonism. Q9GZU1. TRPML1-expressing cells, Ca2+ dye fluorescence, FDSS; host cell line not named in the record; reference of the full effect not given here. activation, % (test concentration not listed). actives 0.12% (n = 410,000); in the data active = activation above about 50%; inconclusive = about 30% to 50%; inactive = below about 30%; note: 0% is about no effect; the text of the record puts the active cut at 80%
#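 Tet-induced TRPML1-DL cells, 1,500 per well, cultured overnight, were loaded with a no-wash Ca2+ dye for 45–90 min. Calcium fluorescence was recorded on the FDSS for 110 s after compound addition, before the EC80 agonist (4 uM 54-4) was added.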
# TRPV1 PAM – enhances activation of the human vanilloid receptor TRPV1; Q8NER1; TRPV1-expressing cells, Fluo-8 calcium influx, capsaicin EC20 potentiation; host cell line not named in the record; control for the full effect not named in the record; potentiation, % at 8.33 µM; actives 0.02% (n = 320,000); AID 540277; active means potentiation above 80%; inconclusive means 30% to 80%; inactive means below 30%; note: 0% is about no effect
#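 Cells expressing TRPV1 were dye-loaded with Fluo-8 and read kinetically: 10 s baseline, 3 min after compound (agonist portion), then 2 min after EC20 capsaicin (allosteric enhancer portion). Calcium-bound dye fluorescence at 480/520 nm.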
# TRPML1 inh – blocks the human TRPML1 channel | TRPML1-inducible cells, Ca2+ dye fluorescence, FDSS; hits give low values; inhibition of EC80 agonist-evoked calcium signal | activity change, negative = inhibition, % (no concentration beside the values) | actives 0.02% (n = 390,000) | Q9GZU1; in the data active means activity change below about -50%; inconclusive means about -30% to -50%; inactive means above about -30%;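 note: stimulus is agonist 54-4 at its EC80 concentration; % is set by controls: 0 for no effect and ±100 for the full control effect; compound concentration not given in the record; the text of the record puts the active cut at -80%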
#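 Tet-induced TRPML1-DL cells loaded with Ca8 no-wash calcium dye were read kinetically on FDSS. Compound addition was followed by EC80 agonist 54-4 (4 uM final); inhibition was read over 110 s.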
# An asterisk follows results filed as active; ? = inconclusive; · = no result given.
# Values run as follows: CtBP-E1A inh	Six1-Eya2 inh	D2 PAM	TRPML1 agonist	TRPV1 PAM	TRPML1 inh
1. CC1=C(C(=O)N(C)C)C(c2ccc(N3CCOCC3)cc2)NC(=O)N1 (stereo unspecified)
→ -6	4	-2	0.6	-1	-14
2. O=c1[nH]c(C2CCCN(S(=O)(=O)c3ccccc3Cl)C2)nc2c1nnn2Cc1ccc2c(c1)OCCO2 (stereo unspecified)
→ ·	-17	-11	1.3	13	3
3. CCN(C[C@H]1N[C@@](CC)(C(=O)OC)[C@H]2C(=O)N(C)C(=O)[C@@H]12)S(=O)(=O)c1ccc(C)cc1
→ 12	-12	·	-0.9	·	58
4. COc1ccccc1CNC(=O)COC(=O)C1CCN(S(=O)(=O)c2ccc(C)c(C)c2)CC1
→ -25	3	5	1.4	-7	10
5. O=CN1CCN(C(=S)NC(=O)c2ccc(Cl)cc2)CC1
→ 3	16	8	-0.5	10	12
6. CC(=O)N1CCc2cc(S(=O)(=O)NCCC(=O)N3CCN(Cc4ccccc4)CC3)ccc21
→ 1	2	-19	0.5	-4	-2
7. NC(N)=N/N=C/c1ccc2cccc(OCc3ccccc3)c2n1
→ 0	-18	-22	0.6	0	-1
8. Cc1cc(C(=O)NCc2ccco2)cs1
→ 8	1	4	-0.5	0	13
9. CCCCCCCCC(=O)NC(NC(=S)N1CCOCC1)C(Cl)(Cl)Cl (stereo unspecified)
→ 11	0	-15	0.9	-7	13
10. O=C(NNC(=O)C12CC3CC(CC(Cl)(C3)C1)C2)c1csc(N2CCOCC2)n1
→ 1	-6	-6	0.0	-14	-12

# Three of the entries above in order of their number in TRPML1 inh, highest first:
entry | canonical_smiles | CtBP-E1A inh | Six1-Eya2 inh | D2 PAM | TRPML1 inh
2 | O=c1[nH]c(C2CCCN(S(=O)(=O)c3ccccc3Cl)C2)nc2c1nnn2Cc1ccc2c(c1)OCCO2 (stereo unspecified) | · | -17 | -11 | 3
6 | CC(=O)N1CCc2cc(S(=O)(=O)NCCC(=O)N3CCN(Cc4ccccc4)CC3)ccc21 | 1 | 2 | -19 | -2
10 | O=C(NNC(=O)C12CC3CC(CC(Cl)(C3)C1)C2)c1csc(N2CCOCC2)n1 | 1 | -6 | -6 | -12

# (cont.)
# Values run as follows: CtBP-E1A inh	Six1-Eya2 inh	D2 PAM	TRPML1 agonist	TRPV1 PAM	TRPML1 inh
11. CC1=C(C(=O)N(C(C)C)C(C)C)CC(CC(=O)NC2CCCCC2)C(=O)N1CCC1=CCCCC1 (stereo unspecified)
→ -11	-4	-7	0.0	·	8
12. O=C(NC(=S)Nc1ccccc1N1CCCC1)c1ccc(-c2cccc([N+](=O)[O-])c2)o1
→ ?	?	12	0.1	15	4
13. O=C(CSc1nnc(CNC(=O)c2cccs2)o1)Nc1cccc(F)c1
→ 1	-4	-2	-0.2	-5	-3
14. Cc1ccc(SCC(=O)Nc2ccc(C(=O)Nc3ccc(O)cc3)cc2)cc1
→ 0	-3	-5	-0.6	18	2
15. Cc1ccc(Sc2cc(NCCCO)c([N+](=O)[O-])c3nonc23)cc1
→ 5	-1	-5	·	-2	·
16. COc1ccc(/C=N/NC(=O)c2cc(=O)[nH]c3ccccc23)cc1OC
→ -3	-3	-4	1.0	?	42
17. O=C(Nc1ccc(-c2cc3ccccc3oc2=O)c(Cl)c1)c1cccnc1
→ 12	-3	-18	-0.1	?	22
18. O=C(O)COc1ccc(NC(=O)c2ccc3c(c2)C(=O)N(Cc2ccccc2)C3=O)cc1
→ -1	-12	-12	-0.7	23	4
19. COc1ccccc1CN1CC(C(=O)NCCn2nc(C)cc2C)CCC1=O (stereo unspecified)
→ -5	2	-9	0.7	1	3
20. O=C(CNC1CCCCC1)Nc1ccc([N+](=O)[O-])cc1C(=O)Nc1ccccc1F
→ -1	0	3	·	-6	·

# Values run as follows: CtBP-E1A inh	Six1-Eya2 inh	D2 PAM	TRPML1 agonist	TRPV1 PAM	TRPML1 inh
21. CC(/C=C/c1ccccc1)=N/NC(=O)CCC(=O)Nc1ccccc1C
→ -5	6	-2	0.1	14	1
22. Cc1ccc(Cn2c(=N)c(C(=O)NCc3ccco3)cc3c(=O)n4ccccc4nc32)cc1
→ -4	-17	-43	-0.5	-8	-2
23. COc1ccc(N2CSC3=C(C#N)C(c4cccs4)CC(=O)N3C2)cc1 (stereo unspecified)
→ 3	4	-4	0.0	9	14
24. Cc1nn(CC2CC2)c(=O)n1-c1cccc(Cl)c1
→ -7	9	7	-1.0	-9	8
25. O=C(CN1C(=O)CSc2ncccc21)N1CCOCC1
→ 2	2	-6	-0.2	2	26
26. Cc1cc(NC(=O)CN2C(=O)NC(Cc3ccccc3)C2=O)no1 (stereo unspecified)
→ 0	12	-19	-0.4	5	23
27. COc1ccc(C2C3=C(CC(C)(C)CC3=O)N(C)C3=C2C(=O)CC(C)(C)C3)cc1OC
→ 5	-3	-6	-0.5	4	-10
28. Cc1nc(-c2ccccc2)sc1C1(C)CC(c2cccc(F)c2)=NO1 (stereo unspecified)
→ 6	7	-10	-0.5	·	31
29. O=C(CSc1nc2ccccc2[nH]1)Nc1ccc2c(c1)OCCO2
→ -2	5	-6	4.3	-10	1
30. COc1ccc2[nH]c(=O)c(CN(C)C(=O)c3cccs3)cc2c1
→ 0	7	2	-0.7	4	2

31. COc1ccc(N2CCN(C(=O)COc3ccc4c(C)cc(=O)oc4c3C)CC2)cc1
32. O=C(c1ccc(CS(=O)Cc2ccc(Cl)cc2)o1)N1CCN(c2ccccn2)CC1 (stereo unspecified)
33. CC(C)CC(=O)CN1C(=O)C2(OCCO2)c2ccccc21
34. COC(=O)CNC(=O)C1CCCN1C(=O)CNC(=O)OC(C)(C)C (stereo unspecified)
35. CCC(=O)Nc1nc2ccccc2n1Cc1ccccc1
36. CCc1ccc(CCC(=O)Nc2sc3c(c2C#N)CCCC3)o1
37. O=C(CN1CCN(Cc2ccc3c(c2)OCO3)CC1)NCC(F)(F)F
38. COc1cc(NC(=O)COC(=O)c2ccc(S(=O)(=O)N3CC(C)CC(C)C3)cc2)c(C)cc1[N+](=O)[O-] (stereo unspecified)
assay / compound	31	32	33	34	35	36	37	38
CtBP-E1A inh	9	0	0	5	4	-9	2	-20
Six1-Eya2 inh	-1	-1	4	2	1	-4	8	1
D2 PAM	-7	5	-13	-6	-13	-4	-14	-7
TRPML1 agonist	-0.6	-0.2	0.0	0.3	0.4	3.1	-0.1	0.5
TRPV1 PAM	-6	3	-2	3	0	13	9	15
TRPML1 inh	-11	1	-4	-13	7	-22	14	13

39. Cc1ccnn1CCC(=O)N1CCCC(Nc2ccc(C(C)C)cc2)C1 (stereo unspecified)
40. COCCOc1ccc(C(F)(F)F)cc1NC(=O)CN1C(=O)NC(C)(c2ccc3c(c2)OCO3)C1=O (stereo unspecified)
41. CCCSc1nc2cc(S(=O)(=O)N3CCOCC3)ccc2n1CC
42. COc1ccc(-c2noc(CCC(=O)Nc3ccc4c(c3)OCCO4)n2)cc1
43. CC(C)(C)c1ccc(/C=N/NC(=O)c2ccccn2)cc1
44. CCCOc1ccc(C(=O)Nc2ccc(S(=O)(=O)NC3=NCCCCC3)cc2)cc1
45. CCc1ccccc1NC(=O)CN1CCN(CC(=O)Nc2ccc(-c3ccccc3)cc2)CC1
46. NC(N)=Nc1nc2ccc(Br)cc2c(=O)[nH]1
assay / compound	39	40	41	42	43	44	45	46
CtBP-E1A inh	4	-2	2	-9	3	-1	2	2
Six1-Eya2 inh	-11	-3	-2	-12	0	-28	-2	-1
D2 PAM	-9	-31	-11	0	-6	5	1	-1
TRPML1 agonist	0.0	-0.4	1.7	2.8	0.1	0.3	1.5	-0.4
TRPV1 PAM	·	-5	-16	-7	3	17	?	-15
TRPML1 inh	-1	4	-12	-26	-2	-10	17	37

47. COC(Cc1nnc(SC)n1-c1ccc(Cl)cc1)OC
48. S=C(NCc1ccccc1)Nc1cccc2ccccc12
49. Cc1cc(C)c2c(=O)[nH]c(SCC(=O)c3ccc(C)c(C)c3)nc2n1
50. CCCn1c(C(C)C)n[nH]c1=S
51. Cc1cccc(CS(=O)(=O)Cc2ccc(C(=O)NCc3ccco3)o2)c1
52. Cc1ccc(OC(=O)CCS(=O)(=O)c2ccc(C)cc2)cc1
53. COc1ccc(OC)c(NC(=O)c2sc3nc(C)cc(C)c3c2N)c1
54. Cc1nnc(NC2(C(F)(F)F)C(=O)Nc3c2c(=O)n(C)c(=O)n3C)s1 (stereo unspecified)
assay / compound	47	48	49	50	51	52	53	54
CtBP-E1A inh	1	-13	-17	2	21	-3	0	5
Six1-Eya2 inh	8	-19	-19	12	-10	1	0	9
D2 PAM	-14	-18	0	-3	-11	3	-3	10
TRPML1 agonist	-0.8	4.5	0.1	0.0	3.7	1.4	0.0	1.4
TRPV1 PAM	·	-6	25	3	-3	-7	1	-32
TRPML1 inh	5	-13	55	54	-16	17	-4	23

55. CCOc1ccc(CC(=O)Nc2ccc(-c3ccc4nnc(C)n4n3)cc2)cc1
56. CC(=O)Nc1c(C)ccc2nsnc12
57. CC(=O)C1=C(O)C(=O)N(CCCn2ccnc2)C1c1ccc(C)cc1 (stereo unspecified)
58. O=C(COC(=O)CCC(=O)c1cccs1)NC1CCCCC1
assay / compound	55	56	57	58
CtBP-E1A inh	-5	0	8	3
Six1-Eya2 inh	-12	4	-1	0
D2 PAM	-3	11	-6	-5
TRPML1 agonist	-0.5	-0.4	0.4	-0.7
TRPV1 PAM	-7	-22	-4	-9
TRPML1 inh	0	-10	3	8

# One compound at a time, from the list above. Values in the order: CtBP-E1A inh	Six1-Eya2 inh	D2 PAM	TRPML1 agonist	TRPV1 PAM	TRPML1 inh
# Entry for CC1=C(C(=O)N(C(C)C)C(C)C)CC(CC(=O)NC2CCCCC2)C(=O)N1CCC1=CCCCC1 (stereo unspecified) : -11	-4	-7	0.0	·	8
# Entry for Cc1cccc(CS(=O)(=O)Cc2ccc(C(=O)NCc3ccco3)o2)c1 : 21	-10	-11	3.7	-3	-16
# Entry for O=CN1CCN(C(=S)NC(=O)c2ccc(Cl)cc2)CC1 : 3	16	8	-0.5	10	12
# Entry for COc1ccc(N2CCN(C(=O)COc3ccc4c(C)cc(=O)oc4c3C)CC2)cc1 : 9	-1	-7	-0.6	-6	-11
# Entry for Cc1nc(-c2ccccc2)sc1C1(C)CC(c2cccc(F)c2)=NO1 (stereo unspecified) : 6	7	-10	-0.5	·	31
